# Measles inh: inhibitors of measles virus growth in infected cells. hit rate 0.1% among 33,000. infected Vero cells, GFP fluorescence, 64 h; active compounds read low. z-score (no concentration beside the values);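 active = z-score under -3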;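 note: score is relative to mean and SD of the compound wells of a plate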
# The depositor's hits bear a star.
SMILES | Measles inh
C=CCOc1ccc(C2Nc3ccccc3S(=O)(=O)N2Cc2ccccc2)cc1OC (centres undefined) | 1.4
O=C(Cn1c(=O)n(CCc2ccc(Cl)cc2)c(=O)c2ccccc21)NC1CCCC1 | 0.22
CCOc1ccc2cc(C(N)=O)c(=O)oc2c1 | 0.03
CCOC(=O)C1CCCN(C(=O)c2cc(-c3ccccc3)nc3ccccc23)C1 (centres undefined) | -1.6
O=C(C1CC1)N1CCc2cc(Br)cc(S(=O)(=O)NCCCN3CCCCC3)c21 | -0.36
O=C(O)c1cc(-c2cc(C(=O)O)c3ccccc3n2)nc2ccccc12 | 1.9
COc1ccc(OCC(=O)N2CCN(C(=O)c3cccc(OC)c3OC)CC2)cc1 | -0.46
CCN1CCN(CCCNC(=O)c2ccc3c(c2)N(Cc2ccc(Cl)cc2)C(=O)c2ccccc2S3)CC1 | -0.78
Cc1ccccc1C1CC(c2cccs2)Nc2nnnn21 (centres undefined) | 0.02
CC(=O)N1CCc2cc(Br)cc(S(=O)(=O)CCC(=O)NCCC3=CCCCC3)c21 | -0.56
Cc1ccc2oc(-c3ccc(Cl)c(NC(=O)c4ccccc4F)c3)nc2c1 | -0.19
O=C(CCC(=O)NC1CCCCC1)Nc1nc(-c2cc3ccccc3oc2=O)cs1 | -0.22
COC(=O)c1c(NC(=O)COc2ccc(OC)cc2)sc2c1CCC(C)C2 (centres undefined) | 0.98
CCCCCSc1nnc2c(n1)OC=Nc1ccc(Br)cc1-2 | -0.36
CCN1CCN(C(=O)C2CC(=O)N(CCc3ccc(C)cc3)C2)CC1 (centres undefined) | 1.7
O=C(NCc1ccccc1Cl)C1CCN(c2nc3cc(Cl)ccc3s2)CC1 | -0.42
CC1=C(C(=O)Nc2ccc(C)c(Cl)c2)C(c2ccc(F)cc2)NC(=O)N1 (centres undefined) | -0.17
CC(C)CCN(C(=O)Nc1ccccc1)C(C)c1ccco1 (centres undefined) | 1.2
COc1nnc(-c2ccc(C)c(S(=O)(=O)NC(C)c3ccccc3)c2)c2ccccc12 (centres undefined) | 0.16
CCCCC(C(=O)Nc1ccc(C)cc1C)N1C(=O)c2ccccc2C1=O (centres undefined) | -0.74
O=C(Nc1nc2c(s1)CCCC2)c1ccccc1Oc1ccccc1 | 0.65
CC(C)(C)c1ccc(-c2nc3cc(NC(=O)c4ccc(Br)o4)ccc3o2)cc1 | 0.32
Cc1onc(-c2ccccc2Cl)c1C(=O)Nc1ccc(OC(C)C)cc1 | 0.63
NCc1cccc(-n2cccn2)c1 | 1.2
O=C(CCCCl)NCC1(c2ccccc2)CCCC1 | -0.87
COc1ccc(Cc2nnc(SCC(=O)Nc3cc(C(F)(F)F)ccc3Cl)o2)cc1 | 0.34
CCOCCOC(=O)C1=C(C)NC(=O)NC1c1cccc([N+](=O)[O-])c1 (centres undefined) | 4.2
COc1ccc(NC(=O)c2sc3nc4c(cc3c2N)C(=O)CCC4)cc1 | 0.49
CCOC(=O)c1c(NC(=O)c2ccccc2Cl)sc2c1CCCC2 | -0.73
CN1CCN(S(=O)(=O)c2ccc3[nH]cc(C(=O)O)c(=O)c3c2)CC1 | 2.3
CCC(C)NC(=O)c1nn2c(c1Cl)NC(c1ccc(C)cc1)CC2C(F)(F)F (centres undefined) | 0.26
O=C(NCCCN1CCOCC1)c1cc(-c2cccs2)nc2ccccc12 | 0.8
Cc1sc(NC(=O)c2cc(=O)c3ccccc3o2)nc1-c1ccccc1 | -1.1
CC(C)c1ccc(NC(=O)c2cc(-c3cccs3)nc3ccccc23)cc1 | -0.09
CCOC(=O)C1=C(N)N(c2ccc(OC)cc2)C2=C(C(=O)CC(C)(C)C2)C1c1cc(Br)cs1 (centres undefined) | 0.01
O=C(CCC1CCCCC1)NCCC12CC3CC(CC(C3)C1)C2 | -0.45
CCC(C)(C(=O)NC1CCCC1)N(Cc1cccs1)C(C)=O (centres undefined) | 1.4
O=C(CN1C(=O)c2ccccc2C1=O)NCCCc1ccccc1 | -0.11
Cc1ccc(-c2nc(S(=O)(=O)c3ccccc3)c(SCC(N)=O)o2)cc1 | 0.33
Cc1ccc(-c2nnc(SCC(=O)Nc3nc(-c4ccccc4)cs3)o2)cc1 | 1.4
Cc1ccc2cc3cc(C(=O)Nc4cccc(Cl)c4)oc3nc2c1 | -0.6
O=C(Nc1ncc([N+](=O)[O-])s1)c1cccnc1 | 1.7
Nc1cccc(-c2nnc(-c3cccc(N)c3)o2)c1 | -0.26
CCOc1ccc(-n2c(C)nc3cc(C(=O)NCc4ccc(F)cc4)ccc32)cc1 | -2.2
COc1ccc(C2CC(=O)C3=C(C2)Nc2ccccc2NC3c2ccc(OCc3ccccc3)cc2)cc1 (centres undefined) | -1.1
CCCNC(=O)Cn1cnc2sc(C(=O)NC3CCCC(C)C3C)c(C)c2c1=O (centres undefined) | -0.51
CCCn1c(NCc2cc(Br)ccc2NS(=O)(=O)c2ccc(C)cc2)nc2ccccc21 | -1.5
COc1cc2c(cc1NC(=O)CCOc1ccccc1C)oc1ccccc12 | -0.01
CC1CCN(Cc2c(O)ccc3c(=O)c(-c4ccc(Cl)cc4)coc23)CC1 | 1
Cc1ccc2nc(NC(=O)COC(=O)c3ccc(Br)o3)sc2c1 | -1.6
CC1CCCCN1C(=O)c1cn(-c2ccc(Cl)cc2)c(=O)c2ccccc12 (centres undefined) | -1
O=C1CC(C(=O)Nc2ccc(F)cc2)SC(=Nc2ccccc2)N1 (centres undefined) | -0.57
CCOC(=O)c1cc2c(=O)n3cccc(C)c3nc2n(CCOC)c1=N | 0.05
CC(C)(C)c1ccc2c(c1)N(CC(=O)NC1CCCC1)C(=O)CO2 | -0.49
COc1ccc(OC)c(C2Nc3cccc4cccc(c34)N2)c1 | -0.45
Cc1ccc(N=C2SC(CC(=O)Nc3ccc(C(=O)O)cc3)C(=O)N2C)cc1C (centres undefined) | 0.71
O=C(Nc1c2c(nn1-c1cccc(Cl)c1)CS(=O)C2)C1CCCCC1 (centres undefined) | -1.7
CN(C)C(=O)N1CCCC(C(=O)O)C1 (centres undefined) | 0.87
CN(C)CCCNCCCc1ccc(C(C)(C)C)cc1 | -2.4
Cc1ccc(NC(=O)CN(c2cc(C(F)(F)F)ccc2Cl)S(=O)(=O)c2ccccc2)cc1C | 1.6

# Continued:
SMILES | Measles inh
COc1ccc2nc(N3CCC(C(=O)NCCc4ccccc4)CC3)sc2c1 | 0.75
O=S(=O)(Nc1ccc(Cl)c(C(F)(F)F)c1)c1ccc(NS(=O)(=O)c2ccc3c(c2)OCCO3)cc1 | -0.76
CCCOc1ccc(-c2csc(NC(=O)c3ccc(S(=O)(=O)N4CCc5ccccc54)cc3)n2)cc1 | 1.6
Cc1ccc(NC(=O)c2cccc(C(=O)OC(C)C)n2)cc1 | -0.68
COc1ccc(C2C(C(=O)NC3CCCCCC3)CC(=O)N2c2ccc(OC)cc2)cc1 (centres undefined) | -0.28
Cc1ccc(-c2nn(CCC(=O)NCc3cccnc3)c(=O)c3ccccc23)cc1 | -0.4
COC(=O)c1ccccc1N1C(=O)C2C3CCC(C3)C2C1=O (centres undefined) | -3.7*
O=C(Nc1c2c(nn1-c1ccc(Cl)cc1)CS(=O)(=O)C2)C12CC3CC(CC(C3)C1)C2 | 0.84
COc1cc(C2CC(C(F)(F)F)n3ncc(C(=O)NC(C)(C)C)c3N2)cc(OC)c1OC (centres undefined) | 0.2
O=C(NCCOC(=O)c1ccc(Cl)cc1)c1cccnc1 | 1
Cc1sc2ncn(CC(=O)Nc3ccc(N(C)C)cc3)c(=O)c2c1C | 0.86
O=C(NCCC1=CCCCC1)C1CCCN(S(=O)(=O)c2ccc(Br)s2)C1 (centres undefined) | -0.51
COc1ccc(CCNC(=O)c2ccc3c(c2)N(Cc2ccccc2F)C(=O)c2ccccc2S3)cc1OC | -0.27
COc1ccc(N=C2SC(C(=O)NCCc3ccccc3)CC(=O)N2Cc2ccc3c(c2)OCO3)cc1 (centres undefined) | 0.52
CCC(C)NC(=O)c1ccc2c(c1)N(CC)C(=O)c1ccccc1S2 (centres undefined) | -2.7
Cc1ccc(NC(=O)CCNC(=O)Cn2cnc3ccccc3c2=O)c(Br)c1 | -1.4
CCCCNC(=O)c1cc2nc(-c3ccccc3)cc(-c3ccccc3)n2n1 | -1.4
CC(C)OC(=O)c1ccc2cc(C(=O)OC(C)C)ccc2c1 | -0.66
COC(=O)C1=CN(C)C=C(C(=O)OC)C1c1ccc(OC)c(OC)c1OC | -0.53
Cc1ccc2nc(-c3ccco3)c(Nc3ccc(F)cc3)n2c1 | -0.41
O=C(Nc1c2c(nn1-c1cccc(Cl)c1)CS(=O)(=O)C2)c1ccc(Cl)c([N+](=O)[O-])c1 | -0.53
CC(C)c1ccc(OCc2nc(-c3ccccc3Cl)no2)cc1 | -0.36
CCOC(=O)C1CCCN(C(=O)c2ccc(CS(=O)(=O)Cc3ccccc3Cl)o2)C1 (centres undefined) | -0.21
Cc1ccc(S(=O)(=O)N(Cc2ccccc2)c2ccccc2C(=O)N2CCOCC2)cc1 | 0.54
CCc1ccc(Oc2coc3cc(OC(C)C(=O)OCC(C)C)ccc3c2=O)cc1 (centres undefined) | 0.23
Cc1cc(NC(=O)c2cc3ccccc3o2)nc2c1c(=O)oc1ccccc12 | 0.17
CCc1ccc(-c2nc(-c3cc4ccc(OC(C)=O)cc4oc3=O)sc2C)cc1 | 0.78
CC1(C)CC(=O)C2=C(C1)OC1=C(C(=O)CC(C)(C)C1)C2c1ccccc1C(=O)O | 0.12
Cc1ccc(Cl)cc1-n1c(-c2cccc([N+](=O)[O-])c2)n[nH]c1=S | 0.69
Cc1ccc(S(=O)(=O)NCc2nnc(NC(=O)c3ccccc3I)s2)cc1 | -0.55
CC1CC(C)CN(C(=O)C2CCCN(S(C)(=O)=O)C2)C1 (centres undefined) | -1.7
CCN(Cc1ccccc1)S(=O)(=O)c1ccc(C(=O)Nc2nnc(C3CC3)o2)cc1 | -1.4
Cc1ccc(S(=O)(=O)N(Cc2ccco2)CC2CCCO2)cc1[N+](=O)[O-] (centres undefined) | -0.66
O=C(C1=C(O)C(=O)N(CCCn2ccnc2)C1c1ccco1)c1cccs1 (centres undefined) | -0.49
COc1cc(-c2c(C#N)c(N)n3c(nc4ccccc43)c2C#N)ccc1OCc1ccccc1 | -0.24
COCCCNc1nc2c(c(=O)n(C)c(=O)n2C)n1Cc1ccc(C)cc1 | 1.2
COc1ccccc1-c1cc(C(F)(F)F)nc(N2CCCC2)n1 | -0.76
COc1cccc2cc(-c3cn(-c4cccc(C(F)(F)F)c4)c(=S)[nH]3)c(=O)oc12 | -0.45
CCCOC(=O)C1=C(C)N(C)C(=O)NC1c1ccc(O)c(OC)c1 (centres undefined) | 0.58
C=CCN(CC=C)c1ccc(N2C(=O)C3CCCCC3C2=O)cc1[N+](=O)[O-] (centres undefined) | 0.41
O=C(Oc1ccccc1C(=S)N1CCOCC1)c1ccc(Br)cc1 | -0.27
O=c1c2ccccc2c(-c2ccccc2)nn1-c1ccccc1 | 1
CCN(c1ccc(F)cc1)S(=O)(=O)c1cc(Br)cc2c1N(C(=O)C1CC1)CC2 | 1.5
O=C(Cn1c(=O)n(Cc2ccccc2)c(=O)c2c3c(sc21)CCC3)NCC1CCCO1 (centres undefined) | -0.5
CCOc1ccc2[nH]c(C)c(CN3CCN(C)CC3)c(=O)c2c1 | -0.1
O=C(Nc1cc(Br)ccc1O)c1cc(-c2ccc(F)cc2)on1 | 0.37
Cc1cccc(-n2nc3c(c2NC(=O)c2ccccc2Cl)CSC3)c1C | -0.12
O=C1CC(N2CCN(c3ncccn3)CC2)C(=O)N1c1ccc(OC(F)(F)Cl)cc1 (centres undefined) | -1
CCC(=O)N1c2ccc(S(=O)(=O)NCc3ccc(C)cc3)cc2CC1C (centres undefined) | 1.3
CCc1ccc(NC(=O)CCN2C(=S)NC(C)(C)CC2C)cc1 (centres undefined) | 0.62
O=C(Nc1ccccc1Br)c1ccccc1I | 1.8
COCc1cc(C)nc(N)c1C#N | 0.5
CCOCCOC(=O)C1=C(C)NC2=C(C(=O)C(C(=O)OC)C(C)C2)C1c1cccc(Cl)c1 (centres undefined) | -0.6
COc1ccccc1C(=O)Nc1cccc(Cl)c1 | -0.01
COc1ccc(Nc2ncnc3sc(C)c(C)c23)cc1OC | 0.56
CC1(C)CC(=O)C2=C(C1)OC1=C(C(=O)CC(C)(C)C1)C2c1ccc(-c2ccc(Cl)cc2)o1 | 1
Cc1ccc(Cn2c(SCC(=O)c3ccc(F)cc3)nc3ccsc3c2=O)cc1 | -0.75
O=C(O)c1ccc(S(=O)(=O)c2ccc3c(c2)C(=O)N(Cc2ccco2)C3=O)cc1 | 1.1
CC(=O)Nc1ccc(N=Cc2ccc(Cl)cc2)cc1 | 0.3
COc1ccc(C2Nc3ccccc3NC3=C2C(=O)CC(C)(C)C3)cc1 (centres undefined) | 1.2

# Overlap with the part before: four compounds; new compounds follow.
SMILES | Measles inh
Cc1ccc(Cn2c(SCC(=O)c3ccc(F)cc3)nc3ccsc3c2=O)cc1 | -0.75
O=C(O)c1ccc(S(=O)(=O)c2ccc3c(c2)C(=O)N(Cc2ccco2)C3=O)cc1 | 1.1
CC(=O)Nc1ccc(N=Cc2ccc(Cl)cc2)cc1 | 0.3
COc1ccc(C2Nc3ccccc3NC3=C2C(=O)CC(C)(C)C3)cc1 (centres undefined) | 1.2
Cc1n[nH]c(C)c1S(=O)(=O)N1CCN(c2ccccc2)CC1 | 1.4
O=C(Oc1ccccc1Cl)c1ccccc1P(=O)(O)O | -0.21
COCCNC(=O)Cn1c(=O)n(CCc2ccccc2)c(=O)c2ccccc21 | -0.43
COc1ccccc1C1C2=C(N=C3SCC(=O)N31)c1ccccc1CC2 (centres undefined) | 1.9
O=C1C(=O)N(c2cccc(C(F)(F)F)c2)C(c2ccccc2[N+](=O)[O-])/C1=C(\O)c1ccccc1 (centres undefined) | 1.5

# Rewritten with the structure last: entries from further up.
Measles inh	SMILES
1.5	O=C1C(=O)N(c2cccc(C(F)(F)F)c2)C(c2ccccc2[N+](=O)[O-])/C1=C(\O)c1ccccc1 (centres undefined)
-0.21	O=C(Oc1ccccc1Cl)c1ccccc1P(=O)(O)O
1.4	Cc1n[nH]c(C)c1S(=O)(=O)N1CCN(c2ccccc2)CC1

# This is a subset; count on the stated rates, not on these rows.
